Screening data deposited in PubChem BioAssay by National Center for Advancing Translational Sciences (NCATS).
Six1-Eya2 inh = qHTS Assay for Inhibitors of the Six1/Eya2 Interaction; AlphaScreen GST-Six1/His-Eya2 binding, biochemical; stronger effect = lower value; control for the full effect not named in the record; hit rate 0.56% among 360,000; Homeobox protein SIX1 (Homo sapiens) + Protein phosphatase EYA2 (Homo sapiens), …; AID 651725, 2012; activity change, % (no concentration beside the values); in the data active = activity change below about -65%; inconclusive = about -30% to -65%; inactive = above about -30%; further: on the % scale 0 is the no-effect control and ±100 the full control effect; compound concentration not given in the record
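GST-Six1 + His-Eya2 (5X stock: 250/500 nM); Tris pH 8.0, 300 mM NaCl, 0.05% BSA, 0.02% Tween 20; GSH donor/Ni acceptor beads; 1 h 37 °C dark; AlphaScreen readout.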
Sfp inh = qHTS Assay for Inhibitors of Bacillus subtilis Sfp phosphopantetheinyl transferase (PPTase); Biochemical Sfp PPTase activity, qHTS; Potency, µM, for inactives: max response, negative = inhibition, actives largely listed as inhibitors; hit rate 3.5% among 310,000; AID 1490, 2009; active means well fitted inhibition curve with a large enough effect; inconclusive means small, poorly fitted or top-dose-only effect, or another doubt; inactive means no such curve, though single readings can be large or run the other way;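 further: the enzyme is Sfp with the accession as filed and its product quenches rhodamine fluorescence; potency means the concentration at half of the fitted maximal effect; 0% = enzyme reaction without inhibitor and -100% = no enzyme wells; top concentration of the series not given in the record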
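With Hepes-Na pH 7.6 buffer containing 10 mM MgCl2, Sfp (15 nM) modified BHQ-2-YbbR (12.5 uM) using rhodamine-CoA (5 uM). Two reads 30 minutes apart at 525/598 nm yielded each well's rate.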
D2 PAM = Beta-Arrestin HTS for Positive Allosteric Modulators of the Human D2 Dopamine Receptor: Potentiators; D(2) dopamine receptor (Homo sapiens), P14416; DiscoveRx D2 beta-arrestin cells, luminescence, 90 min; 100% = 57 uM dopamine signal; potentiation, % (concentration not given with the values); hit rate 0.23% among 360,000; AID 624464, 2012; active = potentiation of 50% or more; inconclusive = 30% to 50%; inactive = 30% or less;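 further: compound concentration not given in the record; tested on top of an EC20 dose of dopamine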
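D2 cells co-treated with compound plus 50 nM dopamine (EC20) for 90 min at 37 deg C to detect potentiation. Beta-arrestin recruitment was read as enzyme-fragment luminescence after 1 h at ambient temperature. Full response was set by 57 uM dopamine.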
CtBP-E1A blk = qHTS Assay for Inhibitors of the CtBP/E1A Interaction. CtBP / adenovirus E1A interaction (AlphaScreen). AlphaScreen GST-E1A/His-CtBP binding, 1536-well; stronger effect = lower value; control for the full effect not named in the record. activity change, % (test concentration not listed). hit rate 0.49% among 340,000. AID 651724, 2012; in the data active means activity change below about -65%; inconclusive means about -30% to -65%; inactive means above about -30%; further: on the % scale 0 is the no-effect control and ±100 the full control effect; compound concentration not given in the record
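Steps: dispense buffer (Tris pH 8.0, NaCl 300 mM, TCEP 1 mM, BSA, Tween 20); add 5X protein mix (GST-E1A, His-CtBP, 125 nM each); pin 23 nL compound; 2 h at 37 °C, dark; add 5X beads (50 ug/mL); 1 h; read.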
PINK1 modulator = A Quantitative High throughput Screen to Identify Chemical Modulators of PINK1 Expression | PINK1 immunofluorescence, high-content cytometry, 24 h | Potency, µM (series often up to 76.6 µM), for the others: at the highest dose activation (PINK1 increase), most hits filed as activators | hit rate 0.2% among 410,000; active = well fitted activation curve with a large enough effect; inconclusive = small, poorly fitted or top-dose-only effect; inactive = flat fitted curve, though single readings scatter; cell line not stated here;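 further: potency means the concentration at half of the fitted maximal effect; % of control where 0% means no effect; nearly all actives have a fitted effect of over 65% in size; a mitochondrial uncoupler was the plate control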
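Cells are seeded, rested 12 hours, then given compound at five concentrations or DMSO for 24 hours. After fixation, blocking and antibody staining, PINK1 amount and mitochondrial localization are scored; CCCP serves as control.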
TRPV1 PAM = HTS Assay for Compounds that Act as Potentiators of the Vanilloid Receptor 1; Transient receptor potential cation channel subfamily V member 1 (Homo sapiens), Q8NER1; TRPV1-expressing cells, Fluo-8 calcium influx, capsaicin EC20 potentiation; host cell line not named in the record; control for the full effect not named in the record; potentiation, % at 8.33 µM; hit rate 0.02% among 320,000; AID 540277, 2011; active means potentiation above 80%; inconclusive means 30% to 80%; inactive means below 30%; further: 0% is about no effect
Target sequence (Q8NER1 whole entry, looked up): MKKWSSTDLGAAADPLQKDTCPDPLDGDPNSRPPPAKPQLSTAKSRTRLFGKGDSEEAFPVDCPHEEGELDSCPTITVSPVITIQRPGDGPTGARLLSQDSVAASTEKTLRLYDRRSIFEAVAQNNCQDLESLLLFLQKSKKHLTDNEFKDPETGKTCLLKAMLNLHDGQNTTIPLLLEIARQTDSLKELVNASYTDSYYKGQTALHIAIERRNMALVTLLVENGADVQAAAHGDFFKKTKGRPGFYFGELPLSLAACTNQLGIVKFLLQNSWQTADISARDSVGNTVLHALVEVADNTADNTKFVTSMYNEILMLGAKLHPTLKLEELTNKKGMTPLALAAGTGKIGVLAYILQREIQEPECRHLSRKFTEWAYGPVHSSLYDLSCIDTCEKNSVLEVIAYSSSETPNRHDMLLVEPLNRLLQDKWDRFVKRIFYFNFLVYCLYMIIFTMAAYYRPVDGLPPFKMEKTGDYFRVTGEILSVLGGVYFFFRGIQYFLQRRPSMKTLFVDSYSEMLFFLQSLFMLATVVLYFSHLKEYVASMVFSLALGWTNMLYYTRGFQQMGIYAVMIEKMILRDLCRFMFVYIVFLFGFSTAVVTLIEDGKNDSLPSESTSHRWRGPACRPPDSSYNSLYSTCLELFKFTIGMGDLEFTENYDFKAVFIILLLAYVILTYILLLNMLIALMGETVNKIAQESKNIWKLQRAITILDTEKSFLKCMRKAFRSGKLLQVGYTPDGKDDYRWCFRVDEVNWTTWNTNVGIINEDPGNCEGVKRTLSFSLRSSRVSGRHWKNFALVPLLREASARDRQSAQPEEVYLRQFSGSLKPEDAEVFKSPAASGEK
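TRPV1-expressing cells were cultured overnight at 35.5C and loaded with Fluo-8 calcium dye for 40 to 90 min at room temperature. After a 10 s baseline, compound was added and calcium influx was read kinetically for 3 min (ex 480/em 520 nm).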
D2 agonist = Beta-Arrestin HTS for Positive Allosteric Modulators of the Human D2 Dopamine Receptor: Agonists | D(2) dopamine receptor (Homo sapiens), P14416 | DiscoveRx PathHunter D2 beta-arrestin, luminescence, 90 min; 100% = 57 uM dopamine signal | activation, % (no concentration beside the values) | hit rate 0.084% among 360,000 | AID 624465, 2012; in the data active = activation above about 40%; inconclusive = about 15% to 40%; inactive = below about 15%; further: compound concentration not given in the record; the text of the record calls up to 30% inactive
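DiscoveRx PathHunter D2 beta-arrestin cells (2,100/well) attached overnight, then compound-stimulated 90 min at 37 C in HBSS/10 mM HEPES/0.1% Tween-20 buffer; beta-galactosidase complementation read by luminescence after 1 h at ambient temperature. Dopamine 57 uM final (EC100) as control.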
Numbers without * were called inactive; ? = inconclusive; · = not tested or not shown; & = joins results of further samples; [ ] = another dose, or the depositor's remark. Hits appear at their usual frequency, and some 3.7% of all compounds hit somewhere here.

SMILES	Six1-Eya2 inh	Sfp inh	D2 PAM	CtBP-E1A blk	PINK1 modulator	TRPV1 PAM	D2 agonist
O=C(NC1CC1)c1c[nH]c2ccc(S(=O)(=O)Nc3cccc(C(F)(F)F)c3)cc2c1=O	-24	7%	17	-14	1.2%	9	-5.6
COc1ccc(/C=N/NC(=O)C(=O)Nc2ccccn2)cc1OC	1	27%	9	0	-2.2%	-1	-1.1
c1cnn(-c2nc(N3CCOCC3)nc(N3CCOCC3)n2)c1	4	6%	-7	4	·	-2	-1.5
O=C(NCCCO)/C(=C/c1ccco1)NC(=O)c1ccc(Br)o1	4	?	-2	8	-0.1%	3	-0.6
O=C(CNC(=O)C1CCCCC1)Nc1cc(Cl)cc(Cl)c1	5	0%	-7	-5	-1.5%	-7	0.1
Nc1c([N+](=O)[O-])cnnc1-c1ccccc1	12	-5%	5	-3	0.0%	-12	4.6
Cc1ccc(-c2ccc(SCC(=O)NCC3CCCO3)nn2)cc1 (stereo not given)	-3	-1%	1	0	1.8%	21	-2.7
COC(=O)c1cc(NC(=O)CN(C)C2CCS(=O)(=O)C2)cc(C(=O)OC)c1 (stereo not given)	?	·	-19	-9	1.6%	·	-3.2
CCOC(=O)C(N=Nc1nn[nH]n1)C(C)=O (stereo not given)	-29	·	-4	-13	4.0%	·	8.6
c1ccc(OCc2nc3c4c(ncn3n2)-c2ccccc2CC42CCCC2)cc1	5	2%	-21	-7	?	-4	-0.6

4 of the compounds above, with each value named.
O=C(NCCCO)/C(=C/c1ccco1)NC(=O)c1ccc(Br)o1
- Six1-Eya2 inh = 4
- Sfp inh = ?
- D2 PAM = -2
- CtBP-E1A blk = 8
- PINK1 modulator = -0.1%
- TRPV1 PAM = 3
- D2 agonist = -0.6
O=C(CNC(=O)C1CCCCC1)Nc1cc(Cl)cc(Cl)c1
- Six1-Eya2 inh = 5
- Sfp inh = 0%
- D2 PAM = -7
- CtBP-E1A blk = -5
- PINK1 modulator = -1.5%
- TRPV1 PAM = -7
- D2 agonist = 0.1
Nc1c([N+](=O)[O-])cnnc1-c1ccccc1
- Six1-Eya2 inh = 12
- Sfp inh = -5%
- D2 PAM = 5
- CtBP-E1A blk = -3
- PINK1 modulator = 0.0%
- TRPV1 PAM = -12
- D2 agonist = 4.6
Cc1ccc(-c2ccc(SCC(=O)NCC3CCCO3)nn2)cc1 (stereo not given)
- Six1-Eya2 inh = -3
- Sfp inh = -1%
- D2 PAM = 1
- CtBP-E1A blk = 0
- PINK1 modulator = 1.8%
- TRPV1 PAM = 21
- D2 agonist = -2.7

(more compounds)
SMILES	Six1-Eya2 inh	Sfp inh	D2 PAM	CtBP-E1A blk	PINK1 modulator	TRPV1 PAM	D2 agonist
COc1ccnc2c1c(=O)n(Cc1c(F)cccc1Cl)c(=O)n2C	1	15%	4	·	0.2%	0	5.5
COc1cc2c(cc1C=O)OC(C)C2 (stereo not given)	7	17%	-12	2	1.4%	-4	4.0
CON/C=C(\C=Nc1ccc(F)cc1)c1ncc(C(F)(F)F)cc1Cl	-5	-6%	-28	7	·	-20	-3.4
Cc1ccc(C(=O)Nc2ncc3c(Cl)cccc3n2)cc1	-12	12%	-17	-6	8.6%	-13	-5.1
COc1ccc(Nc2nc(N3CCN(S(C)(=O)=O)CC3)nc3ccccc23)c(OC)c1	-2	8%	-4	11	4.8%	-4	3.8
COc1ccc(OC)c(NC(=O)CN2C(=O)C(C)N(c3ccc(C)cc3)C2=O)c1 (stereo not given)	13	·	-1	0	2.3%	4	-3.8
O=C(NCc1ccccn1)c1cnc2sccn2c1=O	-1	-2%	2	-1	-1.0%	-2	-0.9
CC(NC(=O)c1ccc(NS(C)(=O)=O)cc1)c1ccccc1 (stereo not given)	29	8%	-23	2	0.1%	-15	-0.8
COc1ccc(/C=N/NC(=O)c2ccc3c(c2)OCCO3)cc1[N+](=O)[O-]	0	7%	6	14	6.9%	-3	-1.1
Cc1ccc(C(C(=O)NCc2ccco2)N(C(=O)CNC(=O)c2cccs2)c2c(C)cc(C)cc2C)cc1 (stereo not given)	5	-14%	-9	2	21%[38.3 µM]	21	-1.4
O=C(CSc1nnc(NC(=O)C2CCC2)s1)Nc1ccc(N2CCOCC2)cc1	-5	-5%	-27	4	2.0%	-3	3.5
Cc1oc(CC(C)C)cc1C(=O)NCCCC(=O)O	8	12%	-9	-1	0.7%	0	-2.9
Nc1nnc(SCc2cc3c(cc2Cl)OCO3)s1	2	27%	-6	4	0.6%	18	-0.6
CN(C)CCOC(=O)Cc1ccc(Cl)cc1	6	26%	-16	-2	-2.5%	1	-3.0
CCC(C)(C)C1CCc2c(sc(NC(=O)c3ccccc3C(=O)O)c2C#N)C1 (stereo not given)	27	1%	-15	1	2.4%	3	-0.7
O=C(NCc1ccccc1)c1ccc(-c2ccccc2C(F)(F)F)o1	3	6%&-29%	-26	10	0.6%	15	-1.9
Cc1c(NC(=O)Nc2cc(F)c(F)cc2Cl)c(=O)n(-c2ccccc2)n1C	0	·	-2	·	-0.6%	·	-3.5
O=C(NCCCN1CCCC1=O)c1ccc2c(c1)ncn2C1CCCCC1	13	10%	-3	-12	1.6%	-2	-2.1
Cn1cnnc1SCC(=O)NC(=O)NC1CCCC1	6	3%	-12	0	7.0%[38.3 µM]	-3	-1.3
O=C(NNS(=O)(=O)c1ccc(F)c(Cl)c1)c1cccc(S(=O)(=O)N2CCOCC2)c1	8	-13%	-23	6	-2.7%	-5	-3.1
COc1ccc(C(=O)OCC(=O)NC(=O)NC2CCCC2)c(OC)c1	10	11%	2	13	1.2%	-3	0.6
Cc1cccc(N2C(N)=C(C#N)C(C#N)(C#N)C2c2ccccc2)c1 (stereo not given)	-28	13%	-10	-20	-1.2%	-5	-2.9
CS(=O)(=O)N1CCn2c1nc1ccccc12	23	7%	-18	-15	-0.3%	-1	-4.6
Cn1cc(C=C2C(=O)OC3(CCCCC3)OC2=O)c2ccccc21	4	-19%	16	-1	0.4%	-10	3.4
COc1ccc(N(C(=O)/C=C/c2ccc(OC)c(OC)c2)C2=CC3CCC(C2)N3C)cc1 (stereo not given)	3	13%	-17	5	0.7%	11	-0.3
CCC1Oc2ccccc2N(CC(=O)NCCCN2CCCC2)C1=O (stereo not given)	1	12%	-8	3	-1.0%	1	-3.0
CCN(CC)c1ccc(/C=N/OC(C)C(=O)Nc2ccc(C)cc2)cc1 (stereo not given)	-12	2%	4	-18	0.5%	-20	-1.2
Cc1cc(C(=O)CSc2nnnn2-c2ccccc2)c(C)n1-c1ccc2c(c1)OCO2	-22	-15%	2	-3	0.3%	-9	0.2
CCOc1ccc(NC(=O)CSc2nnc(NC(=O)C3CC3)s2)cc1	-7	14%	-12	-7	10%	5	-3.5
CN1CCN(NC(=O)c2cccc(S(=O)(=O)N3CCCCCC3)c2)CC1	3	-10%	-4	-1	0.5%	4	-2.4

An excerpt from the list above, as a working copy:
SMILES	Six1-Eya2 inh	Sfp inh	D2 PAM	CtBP-E1A blk	PINK1 modulator	TRPV1 PAM	D2 agonist
CCN(CC)c1ccc(/C=N/OC(C)C(=O)Nc2ccc(C)cc2)cc1 (stereo not given)	-12	2%	4	-18	0.5%	-20	-1.2
Cc1cc(C(=O)CSc2nnnn2-c2ccccc2)c(C)n1-c1ccc2c(c1)OCO2	-22	-15%	2	-3	0.3%	-9	0.2

Carrying on.
SMILES	Six1-Eya2 inh	Sfp inh	D2 PAM	CtBP-E1A blk	PINK1 modulator	TRPV1 PAM	D2 agonist
CSc1ccccc1OCc1cc(C(=O)NCCC2=CCCCC2)no1	1	4%	-10	-2	11%	-7	-3.8
CC(C)N(C(=O)COC(=O)c1ccc(Cl)s1)c1ccccc1	6	·	-1	-13	0.3%	-8	-3.1
c1ccc2c(NCC3CCCO3)nc(N3CCCCC3)nc2c1 (stereo not given)	6	7%	-8	4	0.9%	-18	1.2
Cc1cccc(N2C(=O)c3cccc4cccc(c34)C2=O)c1	-9	-6%	10	·	0.8%	16	-3.9
Cc1ncc([N+](=O)[O-])n1CCOC(=O)Nc1ccc([N+](=O)[O-])cc1	-3	-27%	0	-5	10%	-11	3.9
Cc1[nH]c2ccc(C(=O)N3CCN(c4ccccc4Cl)CC3)cc2c1C	-7	?	-48	-18	-1.2%	5	-1.2
C=C(C)C1CC=C(C)/C(=N/NC(=O)c2cccc([N+](=O)[O-])c2)C1 (stereo not given)	-4	-22%	-17	2	9.6%	-10	-1.9
COc1cccc(NC(=O)C2C(c3ccccc3)C2(Cl)Cl)c1 (stereo not given)	7	11%	-28	·	17%	-3	-2.9
Cc1ccc(C(C)(C)C)cc1S(=O)(=O)Nc1ncnc2sccc12	2	·	3	9	0.5%	20	3.3
CCCc1ccc(OCC(=O)Nc2cc(S(=O)(=O)CC)ccc2O)cc1	3	4%	-20	-9	?	6	1.1
COc1ccc(CN(C)C(=O)CNC(=O)Cc2cccc3ccccc23)c(OC)c1OC	-2	2%	-30	-8	3.0%	4	-4.2
COc1ccc(CN(C)CCCn2cnc3c(OC)ncnc32)cc1OC	2	·	2	-2	-1.7%	·	-0.8
O=C1NC2=C(C(=O)CCC2)C(c2ccccc2Cl)N1 (stereo not given)	9	4%	-6	5	2.4%	7	-1.6
N#C/C(=C(/O)COC(=O)CCCNC(=O)c1ccc(Cl)cc1)c1nc2ccccc2[nH]1	-3	16%	6	-14	-0.7%	8	0.8
CCc1nnc(N/N=C/c2c(C)[nH]c3ccccc23)n1N	-6	8.9µM*	5	0	1.0%	3	?
COc1ccc(Cn2nnnc2CN2CCOCC2)cc1	7	-3%	-13	3	-1.3%[38.3 µM]	-11	-3.4
O=C(CNCC1CCCO1)Nc1ccccc1N1CCCCCC1 (stereo not given)	2	-9%	-14	1	-1.6%	-12	-3.6
Cc1ccc(-n2c(C)cc(C(=O)COC(=O)C3=NNC(=O)CC3)c2C)cc1	-18	?	-8	-10	-2.1%	-5	?
